# Env fusion inh: HIV envelope-mediated fusion inhibition. inhibition, % at 12.3 µM. actives 1.1% (n = 360,000). HeLa-JRFL Env/CEM21 cell fusion, luciferase;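 active means mean replicate inhibition score of at least 50 and every replicate individually at or above 50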;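 further: 0% = plate neutral controls and 100% = maraviroc near 300 nM; one replicate is shown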
# Rce1 inhib: yeast Ras-converting enzyme inhibition; yeast membranes, quenched prenylated peptide cleavage fluorescence; calls only; actives 0.27% (n = 290,000); AID 2563;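 active means fall in fluorescence gain of 50% or more versus controls, with final raw signal at or below 3038400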;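 further: plate controls were neutral control wells for no effect and wells lacking membranes for full effect; tested at 10 µM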
# eIF4H FP inh: inhibitors of RNA binding by human eIF4H; Q15056; eIF4H fluorescence polarization binding assay; inhibition, % at 35 µM; actives 0.94% (n = 290,000);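 active means 50% or more with normal probe brightness, or confirmed in later tests; about a fifth of its hits are not listed in these tables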;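 further: calls also rest on retests at 20 µM and on dose response follow-up; 0% = protein and probe with vehicle and 100% = probe without protein; strong numbers were not always called active; many hits fall short of the cut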
# CSC inhib: blocks cancer stem cells. cancer stem cell-like cells viability, luminescence. inhibition, % at 7.5 µM. actives 1.1% (n = 300,000);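 active means mean at 75% or more and at least half the replicates too; tested in HMLE shEcad cells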;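 further: 0% = median of negative and 100% = median of positive control wells; the first replicate is given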
# MT1-MMP act inh: inhibitors of human MT1-MMP activation; HT1080 RFP-PRO-GFP cells, GFP/RFP ratio fluorescence, overnight; percent of plate control window, DMSO zero; P50281; actives 0.061% (n = 360,000); GFP/RFP ratio change, % at 20 µM;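 active means GFP/RFP ratio change of at least 30% with cell ATP level not reduced by more than half and red fluorescence within 50% of control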; further: strong numbers were not always called active
#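 Assay system: HT1080 RFP-PRO-GFP cells. Benchmarks: DMSO vehicle wells and RFP-L50D-GFP reporter cell wells. Times: overnight cell settling, then overnight compound exposure, 37 °C, 5% CO2. Compound: 20 µM single dose, 1% DMSO. Read-out basis: GFP/RFP fluorescence ratio.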
# PABP FP inh: blocks human PABP binding to poly(A) RNA; P11940; fluorescence polarization; inhibition, % at 35 µM; actives 1% (n = 290,000); AID 2014;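 active means 50% or more with normal probe brightness, or confirmed in later tests; about a fifth of its hits are not listed in these tables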;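 further: calls also rest on retests at 20 µM and on dose response follow-up; controls were probe without protein and protein plus probe with vehicle; some compounds called inactive have numbers as strong as hits; many hits fall short of the cut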
# Target sequence (P11940 whole entry, looked up): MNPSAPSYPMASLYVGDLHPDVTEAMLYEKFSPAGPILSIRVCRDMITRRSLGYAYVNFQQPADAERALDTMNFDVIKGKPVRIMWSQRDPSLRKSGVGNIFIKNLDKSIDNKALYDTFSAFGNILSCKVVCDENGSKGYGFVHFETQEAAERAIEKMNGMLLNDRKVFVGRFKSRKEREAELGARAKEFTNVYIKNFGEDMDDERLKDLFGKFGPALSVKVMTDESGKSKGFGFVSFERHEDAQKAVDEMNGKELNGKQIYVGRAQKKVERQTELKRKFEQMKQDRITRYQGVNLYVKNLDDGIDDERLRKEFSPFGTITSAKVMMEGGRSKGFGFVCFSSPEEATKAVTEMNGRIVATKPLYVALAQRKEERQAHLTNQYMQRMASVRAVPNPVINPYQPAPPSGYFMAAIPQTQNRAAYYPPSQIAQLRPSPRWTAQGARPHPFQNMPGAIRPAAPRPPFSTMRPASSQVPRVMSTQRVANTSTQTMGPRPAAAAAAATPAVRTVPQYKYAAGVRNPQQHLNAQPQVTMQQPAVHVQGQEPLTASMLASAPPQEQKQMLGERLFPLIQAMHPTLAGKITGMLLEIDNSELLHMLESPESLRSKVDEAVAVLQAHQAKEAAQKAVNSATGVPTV
# Yeast UUG start: alters start codon recognition fidelity in yeast. S. cerevisiae UUG-firefly luciferase reporter, luminescence/redox ratio. activity score, % at 18.7 µM. actives 0.13% (n = 350,000);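 active means replicate mean at a twofold rise or more, about +100% in these data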;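 further: firefly luciferase made from a UUG start codon reports start codon fidelity; reporter light over untreated wells divided by growth signal over untreated wells; some hits fall short of that in this replicate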
# eIF4H FP inh retest: also measured in eIF4H FP inh; calls as there; inhibition, %; compound at 20 µM; confirmation average;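 mean of two retest wells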
# PABP FP inh retest: second read-out of PABP FP inh, no call of its own (marks repeat the call); inhibition, %; compound at 20 µM; confirmation repeats;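 mean of two retest wells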
# MT1-MMP act inh RFP: further read-out of MT1-MMP act inh, marked with its call; RFP signal change, %; measured here: RFP expression control read;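 0 = vehicle wells; hits needed this value within 50% of zero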
# * hit, by the source's call; i = inactive; x = no result given. Outcome played no part in choosing rows (roughly 2.9% active in at least one column).
SMILES,Env fusion inh,Rce1 inhib,eIF4H FP inh,CSC inhib,MT1-MMP act inh,MT1-MMP act inh RFP,PABP FP inh,Yeast UUG start,others
O=C(NCCc1ccc(F)cc1)NC12CC3CC(CC(C3)C1)C2,x,i,6,-1,-2,-4,-4,-20,
CCOc1ccccc1OCCCC(=O)N(CC)CC(=O)Nc1c(F)cccc1F,43,i,x,-4,0,2,x,4,
CC(=O)C(Cc1ccccc1)NC(=O)CN(C)Cc1ccccc1Cl (stereo unspecified),-4,i,-4,4,-1,-1,8,-9,
O=C(Nc1ccc2c(c1)CCO2)Nc1nnc([C@H]2C[C@H](O)[C@@H](CO)O2)s1,-2,x,x,x,-2,0,x,5,
COCCCNC(=O)CCc1nc2cccnc2n1Cc1ccc(OC)cc1,-17,i,-3,-10,-1,0,12,-27,
CC1CC(N(C(=O)c2ccco2)c2ccccc2)c2ccccc2N1C(=O)c1ccco1 (stereo unspecified),-66,x,-5,-6,-8,-11,-6,x,
CCCCCCCC(=O)NC1=NC(=O)C(C)(C)S1,14,i,-3,-5,-1,1,-2,0,
COc1ccc(-n2nc(C(=O)NCC(=O)Nc3cccc(Cl)c3)c3ccccc3c2=O)cc1,13,i,17,-2,5,-2,0,0,
O=S(=O)(c1cccc(Cl)c1)N1CCSc2ccccc21,17,x,x,3,0,0,x,-16,
CCN(c1ccc(NC(=O)COC(=O)c2cccs2)cc1)C(C)C,-47,i,-3,8,-4,-4,8,-12,
COc1ccc(CC(NC(C)=O)C(=O)NC2CCN(C(=O)c3ccc(Cl)cc3)CC2)cc1 (stereo unspecified),10,i,0,x,-2,1,3,-5,
Cc1ccc(S(=O)(=O)N2CCN(c3nccnc3C#N)CC2)cc1,8,i,-1,-12,3,1,-2,x,
CCOc1ccccc1-c1nc(-c2ccc(NC(=O)Cc3ccccc3OC)cc2)no1,3,i,54*,x,-5,-9,8.4*,-14,eIF4H FP inh retest=85*;PABP FP inh retest=83*
Cc1ccc(C)c(N(CC(=O)NC(C)C)C(=O)CCC(=O)Nc2ccccn2)c1,-8,i,-7,-10,-6,-1,1,-21,
C=CCN1C(=O)C(Cc2cccc(Cl)c2)SC1=Nc1ccc(C(=O)O)cc1 (stereo unspecified),14,i,-4,-15,-1,0,-2,x,
CC(C)C[C@H](NC(=O)NCCC1=CCCCC1)C(=O)O,-20,i,-3,-5,1,6,-5,x,
O=C(CCNC(=O)N1CC(=O)Nc2ccccc21)Nc1cccc(Cl)c1,-6,i,-5,-3,5,8,0,-13,
COc1cc(NC(=O)Cn2nc(-c3ccc(F)cc3)ccc2=O)ccc1-n1cnnn1,16,i,102*,-13,0,-1,12,x,eIF4H FP inh retest=92*;PABP FP inh retest=45
Cc1cccc(NCN2C(=O)C3C4C=CC(C4)C3C2=O)c1 (stereo unspecified),x,i,4,-10,6,4,4,-18,
CC(=O)Nc1ccccc1/C=C/c1ccc2c(C)cc(C)c(O)c2n1,9,i,3,0,3,-1,6,x,
COc1ccc(C(=O)Nc2ccc(Cl)cc2C(=O)N2CCCC(C)C2)cc1 (stereo unspecified),x,i,0,-7,-1,-4,4,3,
COC(=O)c1ccc(C2/C(=C(\O)c3ccc4c(c3)OCCO4)C(=O)C(=O)N2c2nnc(C)s2)cc1 (stereo unspecified),-1,i,-2,1,-2,2,20,-2,
Cc1nnsc1NC(=O)OCc1ccc(C(C)(C)C)cc1,x,i,-9,24,-11,-30,-9,-10,
CC(=O)Nc1ccc(N(CC(O)Cn2c3ccccc3c3ccccc32)S(=O)(=O)c2ccc(C)cc2)cc1 (stereo unspecified),105*,i,-11,x,-6,-9,3,-7,
Cc1ccc(C)c(-c2nnc(OCC(=O)Nc3cc(C)on3)c3ccccc23)c1,x,i,16,0,-11,-2,5,6,
O=C(N=NC(=O)c1ccco1)c1ccc2c(O)n(N3C(=O)c4ccccc4C3=O)c(O)c2c1,-5,i,-3,5,-1,-1,-4,x,
Cc1ccc(NC(=O)c2c3c(nc4ccccc24)CCC3)cc1S(=O)(=O)N(C)C,17,i,72*,-16,0,0,28,x,eIF4H FP inh retest=103*;PABP FP inh retest=10
Cc1nc2cc(CO)ccc2s1,x,i,0,x,6,2,-7,4,
O=C(Cn1cc(/C=C\[N+](=O)[O-])c2ccccc21)Nc1ccccc1,-126,i,3,x,-18,-19,12,x,
Cn1cc(S(=O)(=O)Nc2ccc(Oc3ccccc3)cc2)c(=O)n(C)c1=O,-30,i,0,-7,4,2,-1,-15,

# Filtered by structure: the entries above containing a furan ring, fused or not.
SMILES,Env fusion inh,Rce1 inhib,eIF4H FP inh,CSC inhib,MT1-MMP act inh,MT1-MMP act inh RFP,PABP FP inh,Yeast UUG start,others
CC1CC(N(C(=O)c2ccco2)c2ccccc2)c2ccccc2N1C(=O)c1ccco1 (stereo unspecified),-66,x,-5,-6,-8,-11,-6,x,
O=C(N=NC(=O)c1ccco1)c1ccc2c(O)n(N3C(=O)c4ccccc4C3=O)c(O)c2c1,-5,i,-3,5,-1,-1,-4,x,

# (listing goes on)
SMILES,Env fusion inh,Rce1 inhib,eIF4H FP inh,CSC inhib,MT1-MMP act inh,MT1-MMP act inh RFP,PABP FP inh,Yeast UUG start,others
O=C(COc1nncc2ccccc12)Nc1ccc(Br)cc1F,5,i,-12,-17,0,0,12,-5,
CCOc1ccccc1NC(=O)C1CCCN(S(=O)(=O)c2cccc3nsnc23)C1 (stereo unspecified),-76,i,0,-3,-6,-4,-7,-12,
C=CCN(C(=O)OC(C)(C)C)S(=O)(=O)NCc1ccccc1,-3,x,x,7,8,6,x,-13,
COCc1cc(/C=N\NC(=O)c2ccc(Cl)cc2)ccc1OC,3,i,3,-8,2,9,-9,x,
Cc1cccc(-c2oc(C)c(C)[n+]2[O-])c1,10,i,-9,2,6,5,0,-21,
CS(=O)(=O)Cc1cccc(C(=O)NC2CCSc3ccccc32)c1 (stereo unspecified),11,i,2,-7,4,1,-2,10,
O=C1C2=C(C(c3ccccc3)=NCCN2)C(c2cccc([N+](=O)[O-])c2)N1c1ccccc1 (stereo unspecified),-12,i,4,-4,-1,0,3,-11,
CCOC(=O)N1CCN(c2ccc(N3C(=O)CCCC3=O)cc2[N+](=O)[O-])CC1,-3,i,2,-6,1,1,23,-19,
Cc1ccc2cccc(S(=O)(=O)Nc3c(C)n(C)n(-c4ccccc4)c3=O)c2n1,-68,i,-1,-2,2,1,-8,-14,
N/C(=N\OC(=O)COc1ccc([N+](=O)[O-])cc1)c1cccnc1,-9,i,-7,1,1,-1,-3,x,
CCc1c(C)nc2cc(-c3ccc(OC)cc3)[nH]n2c1=O,-118,i,-6,11,10,5,28,-19,
Cc1cc(OCC(=O)N2CCOCC2)ccc1NC(=O)C1CCCCC1,24,i,1,5,-3,2,7,-6,
CC(=O)c1ccc(NC(=O)CCOc2cc(C)ccc2C)cc1,-6,i,-6,14,-2,-4,6,-24,
O=C(Nc1ccccc1C(=O)N1CCN(Cc2ccccc2)CC1)c1ccc(F)cc1,3,i,-2,-14,-4,-3,2,0,
Cc1cc(N)nc2nc(C(F)(F)F)nn12,11,i,3,-7,-7,-5,17,-10,
COc1ccc(/C=N/NC(=O)/C(=C/c2ccccc2)CCO)cc1,-21,i,-43,-6,1,2,8,x,
COc1cc(N=Cc2c(CO)cnc(C)c2O)cc(OC)c1OC,-175,i,-4,2,-3,1,-5,-8,
CCn1ncc(N2CCOCC2)c(Cl)c1=O,-9,i,6,-7,3,3,0,-1,
O=C(NCC(c1ccco1)N1CCCCC1)c1ccc(OCc2ccccc2)cc1 (stereo unspecified),9,i,-6,68,2,0,-5,x,
Cc1ccccc1N=C1c2ccccc2C(=O)C1[N+](=O)[O-] (stereo unspecified),-4,i,-14,8,-2,3,3,4,
COc1ccc(CC(=O)Nc2ccc(C(N)=O)cc2)cc1,-4,i,1,-13,0,3,3,x,
CN1CCN(CCCCC(=O)c2ccccc2)CC1,x,i,-2,35,0,0,2,-8,
CCCCN(C1CCS(=O)(=O)C1)S(=O)(=O)c1ccc(OC)c(OC)c1 (stereo unspecified),-4,i,x,-5,1,0,x,-19,
CC(C)(C)c1ccc(C(=O)NC(=O)COC(=O)c2ccc(Br)o2)cc1,-169,x,x,-6,0,1,x,-13,
O=C(Nc1nnc(CCc2ccccc2)s1)c1ccco1,-37,i,-4,8,9,-2,-3,-15,
COc1ccc(O)c(C=Nc2cc(C)on2)c1,-9,i,10,x,12,0,-6,-9,
CCn1c(-c2cc(-c3ccc(C)cc3)nc3ccccc23)n[nH]c1=S,-13,i,-1,-7,1,0,-3,-23,
COc1ccc(C2C(C(=O)NCc3ccco3)CCC(=O)N2c2ccc(OC)cc2)cc1 (stereo unspecified),-20,i,-16,-9,3,3,-2,-4,
COCCNCC(=O)Nc1nc(C)cs1,-7,x,-7,x,1,7,-6,x,
Cc1cccc(N(C)S(=O)(=O)c2csc(C(N)=O)c2)c1,34,i,-4,2,3,4,5,-19,

# Next section, overlapping the part above by two compounds.
SMILES,Env fusion inh,Rce1 inhib,eIF4H FP inh,CSC inhib,MT1-MMP act inh,MT1-MMP act inh RFP,PABP FP inh,Yeast UUG start,others
COCCNCC(=O)Nc1nc(C)cs1,-7,x,-7,x,1,7,-6,x,
Cc1cccc(N(C)S(=O)(=O)c2csc(C(N)=O)c2)c1,34,i,-4,2,3,4,5,-19,
CCOC(=O)c1ccc(NS(=O)(=O)c2cc(-c3nnnn3CC)ccc2OC)cc1,-125,x,4,-13,1,0,-15,-3,
COc1cccc(NC(=O)c2ccccc2-c2ccccc2C(=O)O)c1,0,i,-3,-2,-2,-4,12,-7,
COc1cccc(/C=N/NC(=O)C(=O)NCc2ccco2)c1OC,x,i,0,-8,-1,-2,-3,x,
CCOC(=O)C(Cc1c(F)cccc1Cl)c1ccnc2nc(N)nn12 (stereo unspecified),-5,i,-2,1,-5,1,-10,x,
O=[N+]([O-])c1cc(Br)ccc1NS(=O)(=O)c1ccccc1,-53,x,x,x,11,-2,x,15,
Cc1oc2ccc(OCc3ccc(F)cc3Cl)cc2c1C(=O)O,19,i,-2,0,-5,-1,9,-8,
COc1ccc2oc(=O)c(C(=O)NCc3ccc(F)cc3)cc2c1,6,i,-4,-5,1,-1,-10,-9,
COc1ccc(C(=O)NCCn2ccc3ccccc32)c(OC)c1,x,x,9,-7,-4,4,9,-19,
CCCC1Cc2c(sc3ncnc(N)c23)CO1 (stereo unspecified),-349,i,10,4,-11,-7,48,-18,
Cc1c(NC(=O)c2cc(-c3ccc(F)cc3)nc3ccccc23)c(=O)n(-c2ccccc2)n1C,8,x,x,-17,5,-5,x,x,
C=CCn1c(SCC(=O)Nc2cc(C)ccc2C)nnc1-c1cnccn1,-30,i,-8,-20,1,-1,53,-9,eIF4H FP inh retest=-7;PABP FP inh retest=1
Cc1nc(C)c(-c2csc(NCc3ccccc3)n2)s1,17,i,-2,-8,-1,-2,-6,x,
CCOC1=C2[C@@H](CN(S(=O)(=O)c3ccc(C)cc3)[C@H]2c2ccccc2Cl)[C@H]2C(=O)N(C(C)(C)C)C(=O)[C@H]2C1,-2,x,x,x,-7,-14,x,-3,
CC(C)(C)c1ccccc1OCC(=O)Nc1ccccc1C(=O)NCc1cccnc1,46,x,-14,16,0,-2,-2,-15,
CCN1CCC(Nc2ccnc3cc(Cl)ccc23)CC1,-6,i,-2,12,3,3,49,-9,
COc1ccc(OCC(=O)Nc2ccc(C(=O)Nc3ccccc3C(=O)O)cc2)cc1,-9,i,-9,10,-1,1,24,-8,

# Bioassay records: PubChem, several laboratories
